Source: PubChem BioAssay
UUG fidelity: alters start codon recognition fidelity in yeast. 350,000 tested, 0.13% active. AID 602363. activity score, % at 18.7 µM. S. cerevisiae UUG-firefly luciferase reporter, luminescence/redox ratio;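 active = replicate mean at a twofold rise or more, about +100% in these data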;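 note: firefly luciferase made from a UUG start codon reports start codon fidelity; reporter light over untreated wells divided by growth signal over untreated wells; some hits fall short of that in this replicate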
Rce1 inhib: inhibitors of yeast Ras-converting enzyme; Q03530; yeast membranes, quenched prenylated peptide cleavage fluorescence; calls only; 290,000 tested, 0.27% active;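 active = fall in fluorescence gain of 50% or more versus controls, with final raw signal at or below 3038400; inconclusive = same 50% fall but final raw signal above 3038400; inactive = fall in fluorescence gain under 50%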;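 note: plate controls were neutral control wells for no effect and wells lacking membranes for full effect; tested at 10 µM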
Target sequence (Q03530 whole entry, looked up): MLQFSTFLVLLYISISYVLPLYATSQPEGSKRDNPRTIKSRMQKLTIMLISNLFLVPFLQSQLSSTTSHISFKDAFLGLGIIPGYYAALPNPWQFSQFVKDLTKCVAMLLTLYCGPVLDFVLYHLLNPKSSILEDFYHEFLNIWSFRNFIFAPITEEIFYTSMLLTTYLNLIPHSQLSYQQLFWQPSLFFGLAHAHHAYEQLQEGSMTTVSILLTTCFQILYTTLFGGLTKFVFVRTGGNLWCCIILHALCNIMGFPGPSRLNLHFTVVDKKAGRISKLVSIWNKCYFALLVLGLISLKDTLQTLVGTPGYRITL
Env fusion inh: blocks HIV Env-driven cell-cell fusion; 360,000 tested, 1.1% active; inhibition, % at 12.3 µM; HeLa-JRFL Env/CEM21 cell fusion, luciferase;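 active = mean replicate inhibition score of at least 50 and every replicate individually at or above 50; inconclusive = only one of the two criteria met; inactive = mean below 50 and not all replicates reaching 50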;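 note: 0% = plate neutral controls and 100% = maraviroc near 300 nM; one replicate is shown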
eIF4H FP inh: inhibitors of RNA binding by human eIF4H; Q15056; eIF4H fluorescence polarization binding assay; inhibition, % at 35 µM; 290,000 tested, 0.94% active; AID 2012;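 active = 50% or more with normal probe brightness, or confirmed in later tests; inconclusive = above 50% with abnormal brightness, or retests that disagree; inactive = below 50% or failed in later tests; about a fifth of its hits are not listed in these tables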;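 note: calls also rest on retests at 20 µM and on dose response follow-up; 0% = protein and probe with vehicle and 100% = probe without protein; strong numbers were not always called active; many hits fall short of the cut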
PABP polyA inh: PABP-poly(A) binding inhibition; P11940; PABP-poly(A) RNA binding, fluorescence polarization; inhibition, % at 35 µM; 290,000 tested, 1% active;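 active = 50% or more with normal probe brightness, or confirmed in later tests; inconclusive = above 50% with abnormal brightness, or retests that disagree; inactive = below 50% or failed in later tests; about a fifth of its hits are not listed in these tables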;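 note: calls also rest on retests at 20 µM and on dose response follow-up; controls were probe without protein and protein plus probe with vehicle; some compounds called inactive have numbers as strong as hits; many hits fall short of the cut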
MT1-MMP act inh: inhibitors of human MT1-MMP activation; HT1080 RFP-PRO-GFP cells, GFP/RFP ratio fluorescence, overnight; percent of plate control window, DMSO zero; 360,000 tested, 0.061% active; GFP/RFP ratio change, % at 20 µM;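 active = GFP/RFP ratio change of at least 30% with cell ATP level not reduced by more than half and red fluorescence within 50% of control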; note: strong numbers were not always called active
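Test system: HT1080 RFP-PRO-GFP cells; Benchmarks: DMSO and RFP-L50D-GFP cell wells; Timing: cells overnight before dosing, compound overnight, 37 °C, 5% CO2; Compound: one 20 µM compound dose with 1% DMSO; Read-out: GFP/RFP fluorescence ratio.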
CSC inhib: blocks cancer stem cells; cancer stem cell-like cells viability, luminescence; inhibition, % at 7.5 µM; 300,000 tested, 1.1% active; AID 2717;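 active = mean at 75% or more and at least half the replicates too; inconclusive = mean and replicates disagree; tested in HMLE shEcad cells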;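 note: 0% = median of negative and 100% = median of positive control wells; the first replicate is given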
eIF4H FP inh retest: recorded beside eIF4H FP inh, whose call it bears; inhibition, %; compound at 20 µM; confirmation average;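 mean of two retest wells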
PABP polyA inh retest: second read-out of PABP polyA inh, no call of its own (marks repeat the call); inhibition, %; compound at 20 µM; confirmation repeats;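 mean of two retest wells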
MT1-MMP act inh RFP: also measured in MT1-MMP act inh; calls as there; RFP signal change, %; measured here: RFP expression control read;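 0 = vehicle wells; hits needed this value within 50% of zero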
* hit, by the source's call; i = inactive; ? = inconclusive; · = no result given; + = active, no number.

SMILES | UUG fidelity | Rce1 inhib | Env fusion inh | eIF4H FP inh | PABP polyA inh | MT1-MMP act inh | MT1-MMP act inh RFP | CSC inhib | others
CCC(CO)Oc1cc(NCc2cccc(C(F)(F)F)c2)c2ncn(C(C)C)c2c1 (stereo unspecified) | -22 | · | -5 | · | · | 5 | 9 | ·
COc1ccc(S(=O)(=O)N2CCN(C(=O)CC(C)C)CC2)cc1 | 2 | i | 4 | -2 | 2 | 2 | -4 | -11
CCOC(=O)C(Cc1cc(C(C)=O)ccc1OCC)C(=O)OCC | -18 | i | · | 0 | -9 | 3 | 0 | -8
CCN(CC)S(=O)(=O)c1ccc(N2CCOCC2)c(NC(=O)c2nn(C)c(=O)c3ccccc23)c1 | -10 | · | 5 | · | · | 2 | -2 | ·
CCC(=O)Nc1ccc(NCc2ccc(-c3ccccc3)cc2)cc1 | -11 | i | 3 | -18 | 1 | -1 | -3 | -7
O=c1c2ccccc2nc(-c2cccc(Cl)c2)n1O | · | i | -28 | 1 | -9 | 6 | 9 | 12
C=CCN(CC=C)c1ccc(N2C(=O)C3CCCCC3C2=O)cc1[N+](=O)[O-] (stereo unspecified) | -2 | i | 1 | 4 | 19 | -7 | -11 | -6
CCOC(=O)C1CCN(C(=O)/C=C/c2ccc(OC)cc2)CC1 | -6 | i | -208 | -6 | 2 | -1 | 3 | ·
CCOC(=O)c1sc(NC(=O)CSc2nnc(Cc3ccccc3)o2)c(C#N)c1C | -12 | i | · | -5 | -3 | 5 | 2 | 15
Nc1nnc(SCCCC(=O)c2ccc(F)cc2)s1 | · | i | · | 7 | 0 | 4 | 2 | 13
CCc1nnc(NC(=O)CN2C(=O)N(C)C3(CCCCC3)C2=O)s1 | 0 | · | 4 | · | · | 4 | 2 | ·
Cc1cc(C)cc(N=C2NC(=O)CS2)c1 | 3 | i | 7 | 4 | -6 | -2 | 2 | -1
CCC(c1nnnn1C(C)(C)CC)N(CCCN1CCOCC1)Cc1cc2cccc(C)c2[nH]c1=O (stereo unspecified) | 14 | i | -17 | 1 | -1 | -1 | -4 | -8
COc1ccc(NC(=O)C2CCCN(S(=O)(=O)c3cccnc3)C2)c(OC)c1 (stereo unspecified) | -3 | i | -13 | -4 | -3 | 3 | -2 | 9
O=C(O)c1cc(-c2ccco2)[nH]n1 | -2 | i | -6 | 86 | -5 | -5 | 10 | -13 | eIF4H FP inh retest=-5;PABP polyA inh retest=2
Cc1ccc(C(=O)N/C(=C\c2ccco2)C(=O)NCC2CCCO2)cc1C (stereo unspecified) | 4 | i | · | 10 | 22 | -7 | -9 | 1
CC(C)NC(=O)COc1ccc2c(c1)C(=O)CC(C)(C)O2 | -12 | i | 2 | -9 | 21 | -5 | 0 | -19
CCOC(=O)C1(Cc2ccccc2Cl)CCN(C(=O)CN2CCOC2=O)CC1 | · | i | -17 | -3 | -8 | 0 | 7 | -13
CC1CN(S(=O)(=O)c2ccc(C(=O)N(C)C3CCCCC3)cc2)CC(C)O1 (stereo unspecified) | -11 | · | -127 | · | · | 3 | 4 | -11
CS(=O)(=O)N(CC(=O)N1CCN(c2ccccc2)CC1)Cc1ccc(Cl)cc1 | -18 | i | 8 | 3 | 7 | -5 | -8 | -7
CCC1(C)Cc2c(sc3c2c(=O)n(C)c2nnc(SCc4ccc5c(c4)OCO5)n32)CO1 (stereo unspecified) | -15 | i | 19 | -14 | -1 | -3 | -9 | -13
Nc1c(-c2ccc(F)cc2)cnn1C1CCS(=O)(=O)C1 (stereo unspecified) | · | i | · | -5 | -12 | 1 | 2 | ·
CN1CCN(CC(=O)Nc2cccc(S(=O)(=O)N(C)c3ccccc3)c2)CC1 | -9 | · | · | · | · | 0 | 3 | -9
CC(NC(=O)Cn1cc(C(F)(F)F)cc(Cl)c1=O)c1ccccc1 (stereo unspecified) | · | i | -6 | 5 | 1 | 1 | -1 | -2
O=C(COC(=O)[C@@H]1CCCN1C(=O)c1cccs1)Nc1cccc(Cl)c1 | -11 | · | · | · | · | 2 | 3 | -15

New compounds follow.
SMILES | UUG fidelity | Rce1 inhib | Env fusion inh | eIF4H FP inh | PABP polyA inh | MT1-MMP act inh | MT1-MMP act inh RFP | CSC inhib | others
CCC(=O)N1CCN(c2ccccc2NC(=S)NC(=O)c2cccc([N+](=O)[O-])c2)CC1 | · | · | -3 | -7 | 7 | 4 | -5 | -12
CCOc1ccc(C(=O)NCC(=O)N2CCC3CCCCC3C2)cc1OCC (stereo unspecified) | -3 | i | 8 | -7 | 12 | 1 | 0 | ·
O=C(O)CCCC(=O)Nc1ccc(Oc2cccc(C(F)(F)F)c2)nc1 | -5 | i | -4 | -6 | 10 | -3 | 0 | -8
CCNc1nc(C)cc(COC)c1C#N | -14 | i | -36 | 4 | 9 | -15 | -4 | -13
O=C(CC1C(=O)NCCN1Cc1c(F)cccc1Cl)NC1CCCCCC1 (stereo unspecified) | 8 | i | 21 | 0 | 5 | 2 | 2 | -8
O=C(COc1ccc(F)cc1)N(Cc1ccco1)C1CCS(=O)(=O)C1 (stereo unspecified) | · | i | 4 | -7 | -7 | -1 | 2 | -8
O=C(CCNC(=O)c1ccc([N+](=O)[O-])cc1)NCCC1=CCCCC1 | 0 | i | · | · | · | 5 | 0 | -12
CC1(C)OC(=O)N(CC(=O)Nc2ccccc2)C1(C)O (stereo unspecified) | · | i | 11 | -9 | 4 | 1 | 3 | -4
COc1cc(-c2nc(C)c(C(C)=O)n2O)ccc1OCC(=O)Nc1ccc(Cl)cc1 | · | i | 10 | 6 | -16 | 7 | 3 | -1
CCN1C(=O)CC(N2CCC(Nc3ccc(F)cc3)CC2)C1=O (stereo unspecified) | -1 | i | · | 3 | 2 | 2 | 0 | -1
OC(CN1CCN(c2cccc(C(F)(F)F)c2)CC1)c1c[nH]c2ccccc12 (stereo unspecified) | -1 | i | · | -6 | -6 | 4 | -2 | ·
CCOC(=O)Cc1cc(=O)n2[nH]c(-c3ccccc3)c(-c3ccccc3)c2n1 | -6 | i | 4 | 26 | 19 | 20 | 18 | 17
COc1ccccc1-n1c(CNc2c(C)cccc2C)nnc1SCC(=O)N1CCOCC1 | -2 | · | -80 | -2 | 8 | -3 | 1 | -11
COc1ccccc1-c1cc(C(F)(F)F)nc(N2CCCC2)n1 | -22 | · | -115 | -6 | 9 | -6 | -1 | 3
Cc1c(CCO)sc[n+]1CC(=O)OCCC12CC3CC(CC(C3)C1)C2 | · | i | 11 | -2 | -6 | -5 | -4 | 51
CC(C)Nc1nc(NCc2ccccc2)c2sccc2n1 | -8 | · | 38 | · | · | -3 | -10 | ·
CCc1ccc(O)c(CNCCNCc2cc(CC)ccc2O)c1 | 1 | i | 1 | · | · | 5 | -2 | 13
Cc1ccc2cc(CN(Cc3ccco3)C(=O)C3CCCCC3)c(=O)[nH]c2c1C | · | i | · | 0 | -1 | 5 | 4 | -27
COC(=O)Oc1ccc(/C=N/NC(=O)CN(c2ccccc2Cl)S(C)(=O)=O)cc1OC | -2 | · | · | 0 | -3 | 4 | 10 | 4
Cn1c2ccsc2c2ncn(Cc3ccc(F)cc3)c(=O)c21 | -20 | · | -24 | · | · | 0 | -3 | ·
Cc1ccc2nc(-c3ccc(SCC(=O)Nc4nc(C)cs4)nc3)[nH]c2c1 | 4 | i | i | -4 | 0 | 7 | 1 | 0
COC(=O)C1CCN(C2CN(C3CCCCC3)S(=O)(=O)C2)CC1 (stereo unspecified) | -16 | · | 6 | · | · | 5 | 7 | ·
O=c1c(-c2nnc(SCc3ccc(Cl)c(Cl)c3)o2)cccn1Cc1ccccc1 | -15 | + | -14 | -5 | 3 | 4 | 1 | 40
Cc1nc2c(OCc3ccc(C#N)cc3)cccn2c1N(C)Cc1cccs1 | -9 | · | 12 | · | · | -3 | -6 | ·
CC1Oc2ccccc2N(CC(=O)NC2CCCCC2)C1=O (stereo unspecified) | -14 | i | -13 | -6 | 2 | 1 | 4 | -7

An excerpt from above in order of number of heavy atoms, ascending.
SMILES | UUG fidelity | Rce1 inhib | Env fusion inh | eIF4H FP inh | PABP polyA inh | MT1-MMP act inh | MT1-MMP act inh RFP | CSC inhib | others
CCNc1nc(C)cc(COC)c1C#N | -14 | i | -36 | 4 | 9 | -15 | -4 | -13
CC(C)Nc1nc(NCc2ccccc2)c2sccc2n1 | -8 | · | 38 | · | · | -3 | -10 | ·
Cn1c2ccsc2c2ncn(Cc3ccc(F)cc3)c(=O)c21 | -20 | · | -24 | · | · | 0 | -3 | ·
CCN1C(=O)CC(N2CCC(Nc3ccc(F)cc3)CC2)C1=O (stereo unspecified) | -1 | i | · | 3 | 2 | 2 | 0 | -1
O=C(CCNC(=O)c1ccc([N+](=O)[O-])cc1)NCCC1=CCCCC1 | 0 | i | · | · | · | 5 | 0 | -12
O=C(O)CCCC(=O)Nc1ccc(Oc2cccc(C(F)(F)F)c2)nc1 | -5 | i | -4 | -6 | 10 | -3 | 0 | -8
OC(CN1CCN(c2cccc(C(F)(F)F)c2)CC1)c1c[nH]c2ccccc12 (stereo unspecified) | -1 | i | · | -6 | -6 | 4 | -2 | ·
Cc1ccc2cc(CN(Cc3ccco3)C(=O)C3CCCCC3)c(=O)[nH]c2c1C | · | i | · | 0 | -1 | 5 | 4 | -27
CCC(=O)N1CCN(c2ccccc2NC(=S)NC(=O)c2cccc([N+](=O)[O-])c2)CC1 | · | · | -3 | -7 | 7 | 4 | -5 | -12

(further entries)
SMILES | UUG fidelity | Rce1 inhib | Env fusion inh | eIF4H FP inh | PABP polyA inh | MT1-MMP act inh | MT1-MMP act inh RFP | CSC inhib | others
Cc1cc(C)[n+](-c2ccc(C(C)C)cc2)c2[nH]c(=O)[nH]c(=O)c12 | 2 | ? | · | 8 | -1 | 2 | -1 | 25
O=c1c2ccccc2nc(/C=C/c2cccc([N+](=O)[O-])c2)n1CCCO | -1 | · | · | · | · | -1 | -2 | -5
CCCCn1c(N)c(N(CCC(C)C)C(=O)c2ccc(COc3ccccc3)o2)c(=O)[nH]c1=O | · | i | 5 | · | · | -1 | 3 | -10
COc1ccc(-n2nnnc2SCC(=O)Nc2ccc(OC)cc2OC)cc1 | 1 | i | -61 | 0 | 0 | 5 | -2 | -17
Cc1ccc(S(=O)(=O)N2CCOCC2)cc1C(=O)OCC(=O)Nc1ccc(Cl)cn1 | 5 | · | -114 | · | · | -1 | -10 | ·
O=C(C1=C(O)C(=O)N(CCN2CCOCC2)C1c1cccc(O)c1)c1cc2ccccc2o1 (stereo unspecified) | -16 | i | 14 | -11 | 1 | -4 | 4 | ·
Cc1nc(NC(=O)COc2ccc(Cl)cc2)sc1C(=O)N(C)C | · | i | 10 | 11 | 9 | · | · | -19
CCCOc1ccccc1/C=C1\SC(N2CCCCC2)=NC1=O | -9 | i | -22 | 4 | 0 | 10 | 0 | 24
CCC(=O)c1ccc(N2CCN(C(=O)Cc3ccccc3)CC2)c(F)c1 | 6 | i | · | -4 | 1 | -4 | -5 | -15
CSc1ncc(Cl)c(C(=O)Nc2ccccc2Br)n1 | · | i | -34 | -7 | -2 | -9 | -1 | 2
CCc1ccc(-c2nc(NC(=O)c3ccc(OCC(=O)Nc4ccc(F)cc4)c(OC)c3)sc2C)cc1 | -1 | i | -19 | -6 | -3 | -1 | -5 | -4
